Screening results deposited in PubChem BioAssay by National Center for Advancing Translational Sciences (NCATS).
StopGo FLuc: Primary qHTS Assay for Foot and Mouth Disease Virus Antivirals against NCGC Sytravon and CBC Compound Libraries: Firefly Luciferase Signal; AID 1745856, 2022; HEK cells with a luciferase reporter of 2A StopGo recoding; 120,000 tested, 0.23% active; Potency, µM (top dose mostly 57.5 µM), for the others: at the highest dose signal change, negative = less light; active = well fitted falling curve with a large enough effect; inconclusive = small, poorly fitted or top-dose-only effect; inactive = no such curve, though single readings can be large or run the other way; note: nearly all actives have a fitted effect of over 60% in size; overnight with compound
2A Renilla: Primary qHTS Assay for Foot and Mouth Disease Virus Antivirals against NCGC Sytravon and CBC Compound Libraries: Renilla Luciferase Signal | Potency, µM (top dose mostly 57.5 µM), inactives show top-dose signal change, negative = less light | HEK cells with a luciferase reporter of 2A StopGo recoding | 120,000 tested, 0.32% active; active means well fitted falling curve with a large enough effect; inconclusive means small, poorly fitted or top-dose-only effect; inactive means no such curve, though single readings can be large or run the other way; note: nearly all actives have a fitted effect of over 55% in size; overnight with compound
Starred values were filed as active, the others as inactive; ? = inconclusive; & = joins results of further samples; [ ] = dose if it differs, or a comment. % is set by controls: 0 for no effect and ±100 for the full control effect; potency is the fitted concentration of half-maximal effect. A portion of the library; the hit share may differ from the screen's.

Under each structure: StopGo FLuc	2A Renilla
CCc1c(C(=O)Nc2sc(C)c(C)c2C#N)csc1C
 : 25%	11%
CCC(CO)Nc1cccc2c1S(=O)(=O)N(Cc1cn(Cc3ccccc3C(F)(F)F)nn1)Cc1ccccc1O2 (stereo unspecified)
 : 4%	234%[activator]
CC(=O)c1ccc(NC(=O)c2nc(-c3ccc(Cl)cc3)n3c2CCCCC3)cc1
 : -10%	-7%
CNc1c(NC(=O)c2cccc(C)c2)c(=O)oc2ccccc12
 : 27%	-1%
CCN(CC)CCNC(=O)c1cc2c(=O)oc3ccc(C)cc3c2s1
 : -24%	-15%
COc1cccc(-n2c(C)nc3cc(C(=O)O)ccc32)c1
 : -5%	-10%
CSc1ccc(C(C)NC(=O)c2cccc(F)c2)cc1 (stereo unspecified)
 : 4%	8%
COc1ccc(Cl)cc1NC(=O)Nc1nnc(N(C)C2CCCCC2)s1
 : -10%	-10%
Cc1c(C(=O)OC(C)C(=O)N2CCNC2=O)oc2ccc(Cl)cc12 (stereo unspecified)
 : 166%[activator]	19%
COc1ccc(-c2c(C)c3ccc(O)c(CN4CCOCC4)c3oc2=O)cc1
 : 15%	30%[activator]
CNC(=O)NC(=O)C(C)NC(C)c1ccc(Cl)cc1 (stereo unspecified)
 : 4%	4%
O=C(CC(c1cccs1)N1Cc2ccccc2C1=O)Nc1ccc(Cl)cc1 (stereo unspecified)
 : 21%	162%[activator]
CCCCc1ccc(-c2ccc(C3CCC(CC)CC3)cc2)nc1 (stereo unspecified)
 : -6%	-7%[1.06 µM]
COCc1nn2c(=O)c(NC(=O)c3ccccc3)cnc2s1
 : 139%[activator]	1%
CCn1cc(C(=O)NCc2ccccc2OC)c(=O)c2cc(S(=O)(=O)N3CCCCCC3)ccc21
 : 5%	-4%
Cc1cccc(CCNC(=O)c2cc(S(=O)(=O)N3CCCCC3)c[nH]2)c1
 : -4%	26%
COc1cc2c(cc1OC)C(=O)C(Sc1nnc(-c3cccc(Cl)c3)o1)C2 (stereo unspecified)
 : 4%	7%
CCCn1c(-n2nc(C)cc2C)nc2c1c(=O)n(Cc1ccc(F)cc1)c(=O)n2C
 : 2%	-10%
CC(NC(=O)CC(C)(C(=O)O)c1ccccc1)c1ccc(Cl)c(Cl)c1 (stereo unspecified)
 : 11%	18%
Cc1cc(N)ccc1-c1ccc(N)cc1C
 : 19%	9%
Nc1ccc2oc(Cc3ccc(Cl)cc3)nc2c1
 : 21%	-5%
COc1ccc2c(CCNC(=O)c3ccccc3C)c[nH]c2c1
 : 18%	24%
COc1cc(OC)c(NC2=NS(=O)(=O)C(c3ccc(C)c(C)c3)=C2C)cc1Cl
 : -13%	-8%
CCc1nnc(SCc2c(F)cccc2Cl)c2cc3sccc3n12
 : -12%	-10%
Cc1ccc(SC(C(=O)c2ccccc2)C(=O)c2ccccc2)cc1
 : 69%[activator]	8%
Cn1ccnc1C(NCC(O)COCc1cccs1)c1ccccc1 (stereo unspecified)
 : 4%	12%
O=C(c1cc2ccccc2oc1=O)N1CCCN(Cc2ccccc2)CC1
 : 0%	14%
O=Cc1cccc2ccccc12
 : 8%	4%
Cn1c(=O)[nH]c(=O)c2c1nc(N1CCN(CC(N)=O)CC1)n2Cc1ccc(Cl)cc1
 : -7%	-8%
O=C(c1ccccc1)N1CCCC(c2nc3c(nnn3Cc3ccc(F)cc3F)c(=O)[nH]2)C1 (stereo unspecified)
 : -10%	5%
CC(C)(CNC(=O)C(Cl)(Cl)Cl)CNC(=O)C(Cl)(Cl)Cl
 : 0%	23%
CCCCNCc1ccc(C)s1
 : -6%	-7%
CCOc1ccc(CCNC(=O)CSc2cc(=O)n(C)c3ccc(Cl)cc23)cc1OCC
 : 37%[activator]	41%[activator]
O=C1c2ccccc2NC(c2cccc(Cl)c2)N1CCCN1CCOCC1 (stereo unspecified)
 : 11%	5%
CCc1cccc(CC)c1NC(=O)CN(C)S(=O)(=O)c1ccc2c(c1)n(C)c(=O)c(=O)n2C
 : -1%&-11%	-5%&3%
CCN(CC)CCCNC(=O)c1c(C)oc2ncnc(N3CCOCC3)c12
 : -19%	-10%
CCCCCCNc1nc2c(c(=O)n(C)c(=O)n2C)n1CCC
 : ?	20µM*
COc1ccc(CNC(=O)CN(C)S(=O)(=O)c2ccc3[nH]c4c(c3c2)CCCC4)cc1
 : -14%	30%[activator]
COc1ccccc1-c1cc(C(F)(F)F)nc(S(=O)(=O)CCCC(=O)Nc2cc(Br)ccc2O)n1
 : 80%[activator]	7%
O=C1CN(C(=O)Cn2ccc3ccc(OCc4ccccc4)cc32)CCN1
 : 45%[activator]	-4%
Cc1cccc(N2CCN(C(=O)NCc3noc4ccccc34)CC2)c1C
 : 14%	17%
Cc1cc(C)cc(NC(=O)C(C)N2Cc3ccccc3C2=O)c1 (stereo unspecified)
 : -15%	1%
Cc1ccc2[nH]c(=O)c(CN(C)C(=O)c3cccc(Cl)c3)cc2c1
 : 6%	-5%
CCCCC(CC)Cn1c(Oc2ccccc2)nc2c1c(=O)n(C)c(=O)n2C (stereo unspecified)
 : -9%	1%
Cc1cccc(N2CCN(C(=O)CCS(=O)(=O)c3ccc4c(c3)oc(=O)n4C)CC2)c1C
 : -16%	3%
Cc1nc2cc(NC(=O)c3ccc(F)c(F)c3)ccc2o1
 : 147%[activator]	-23%
COc1ccc(-c2nsc(NC(=O)COc3ccccc3OC)n2)cc1
 : 11%	-4%
COc1ccccc1C(=O)N(Cc1ccc(C(C)C)cc1)C1CCS(=O)(=O)C1 (stereo unspecified)
 : 2%	22%
O=C(CN1CCCN(Cc2ccc(F)cc2)S1(=O)=O)Nc1ccc2c(c1)OCCO2
 : -2%	14%
Cc1nc2c(-c3ccccc3)c(C)nn2c(C)c1CCC(=O)NCc1cccc(Cl)c1
 : -4%	-12%

Another view of some results above:
compound	StopGo FLuc	2A Renilla
Cc1cccc(N2CCN(C(=O)NCc3noc4ccccc34)CC2)c1C	14%	17%
Cc1cc(C)cc(NC(=O)C(C)N2Cc3ccccc3C2=O)c1 (stereo unspecified)	-15%	1%

Later entries.
Under each structure: StopGo FLuc	2A Renilla
CCc1cccc2c(C(=O)Cn3nnc(-c4ccccc4C)n3)c[nH]c12
 : 2%	0%
COc1ccc(C(C)=O)cc1CN(C)CC(=O)Nc1cccc(F)c1
 : -7%	9%
c1ccc(C2=Nn3c(nnc3-c3ccco3)SC2)cc1
 : 19%	21%
CC1CCc2onc(C(=O)Nc3ccc(Cl)cc3)c2C1 (stereo unspecified)
 : 191%&93%[activator]	4%&-4%
Clc1ccc2nc(Nc3ccccc3Cl)nc(-c3ccccc3)c2c1
 : 0%	-8%
Cc1ccc2scc(N3CCN(c4ccccc4)CC3)c(=O)c2c1
 : 47%[activator]	28%
CCN(CC)Cc1c(C=O)sc2c1CCCC2
 : 50%[activator]	18%
Cc1ccc(NS(=O)(=O)c2ccc3[nH]c4c(c3c2)CCCC4)cc1N(C)C
 : -12%	313%[activator]
Cc1nc2scc(C)n2c(=O)c1S(=O)(=O)Nc1ccc(N2CCN(S(C)(=O)=O)CC2)cc1
 : ?	?
NC(=O)c1c(NC(=O)CS(=O)(=O)c2ccc(Cl)cc2)sc2c1CCCC2
 : 0%	21%
CCOC(=O)CC(=O)CSc1nc2ccsc2c(=O)n1Cc1ccccc1
 : -3%	0%
Cc1cc(C(=O)NC2CCCCC2C)cs1 (stereo unspecified)
 : 72%[activator]	5%
Cc1ccc(COc2ccccc2CNc2ncn[nH]2)cc1
 : 0%	-22%
CCCCNC(=O)c1ccccc1NC(=O)Cn1cnc2c1c(=O)n(C)c(=O)n2C
 : -2%	-7%
COc1ccc(-c2cc3nc(C4CCN(C(=O)OC(C)(C)C)CC4)c(C(=O)Nc4cc(Cl)cc(Cl)c4)cn3n2)cc1
 : -15%	-21%
COc1ccc(C)cc1Nc1nc(N)c2cc(OC)c(OC)cc2n1
 : 1%	-14%
CC(C)Cc1ccc2cc(C(=O)O)[nH]c2c1
 : 20%	-6%
O=C(COc1ccc(F)cc1)Nc1ccc(C(=O)OCc2cc(=O)n3nc(C4CC4)sc3n2)cc1
 : -21%	-9%
CC(C)(C)NC(=O)CC(c1ccccc1)c1ccccc1
 : 0%	0%
CCCCOc1ccc(/C=C(/C#N)c2nc3ccccc3[nH]2)cc1OC
 : 36%[activator]	14%

Taken from above.
Cc1ccc(NS(=O)(=O)c2ccc3[nH]c4c(c3c2)CCCC4)cc1N(C)C | StopGo FLuc: -12%
Cc1nc2c(-c3ccccc3)c(C)nn2c(C)c1CCC(=O)NCc1cccc(Cl)c1 | 2A Renilla: -12%
O=C1CN(C(=O)Cn2ccc3ccc(OCc4ccccc4)cc32)CCN1 | StopGo FLuc: 45%[activator]
CC1CCc2onc(C(=O)Nc3ccc(Cl)cc3)c2C1 (stereo unspecified) | 2A Renilla: 4%&-4%
Cc1cccc(N2CCN(C(=O)CCS(=O)(=O)c3ccc4c(c3)oc(=O)n4C)CC2)c1C | StopGo FLuc: -16%

Later entries
Under each structure: StopGo FLuc	2A Renilla
O=C(NC1CCCCC1)c1ccc(CSc2nc3cccnc3n2Cc2ccccc2F)cc1
 : -23%	16%
C/C(=N/NC(=O)c1cccc(C)c1)c1ccc2ccccc2c1
 : 72%[activator]	12%
CCCCNC(=O)CCC(=O)NNc1nc2ccccc2c2nc(C)nn12
 : -23%	-18%
CCOC(=O)c1c(NC(C)=O)c2c3c(sc2n1Cc1nc(-c2cccc(C)c2)oc1C)CCCC3
 : -4%	?
CN(C)C(=O)CCc1c(-c2ccc(F)cc2)[nH]c2ccc(F)cc12
 : -2%	41%[activator]
CCOc1ccc(NC(=O)COc2ccccc2)c2cccnc12
 : -7%	-21%
C[C@H](CS)C(=O)N1CCC[C@H]1C(=O)O
 : -13%	-4%
COc1cccc(CNc2sc3c(c2C(=O)Nc2ccc(OC)cc2OC)CCC3)c1
 : -11%	-13%
CCOC(=O)c1ccc(NC(=O)C2CCN(S(=O)(=O)Cc3ccccc3)CC2)cc1
 : -15%	-4%
CC1=C(C)CC(C(=O)Nc2ccc3c(c2)CCC3)C(C(=O)O)C1 (stereo unspecified)
 : 24%	-4%
CCc1ccc(N2CC(C)Cn3c2nc2c3c(=O)n(CC(=O)O)c(=O)n2C)cc1 (stereo unspecified)
 : -6%	-15%
Cc1ccc(NC(=O)C(C)Sc2ccccc2)c(C)c1 (stereo unspecified)
 : 58%[activator]	7%
Cc1ccc(CN2CCN(CC(=O)NCc3ccccc3Cl)C2=O)cc1
 : -7%	30%[activator]
O=C(Nn1cnc2ccccc2c1=O)C1CCCC1
 : 0%	-6%[1.06 µM]
CCN(c1ccccc1)S(=O)(=O)c1ccc(NC(=O)c2nc(SC)ncc2Cl)cc1
 : -29%	0%
O=S(=O)(Nc1nc2ccccc2nc1Nc1ccccc1)c1ccc(Cl)s1
 : 4.5µM*	?
Cc1cc(C(=O)OCC(=O)N(C)c2ccccc2)c2ccccc2n1
 : 13%	52%[activator]
O=C(c1ccc(OCc2cn3ccccc3n2)cc1)N1CCN(C(=O)c2cccs2)CC1
 : 0%	1%
COC(=O)CNC(=O)CSCc1ccccc1
 : 29%	4%
Cc1nc(NCc2ccco2)sc1C(=O)NC1CC1
 : 39%[activator]	-13%
O=C(Nc1ccccc1)c1nc2ccccc2nc1N1CCOCC1
 : -9%	-7%
COc1ccc(-c2c(C#N)c(SCC(=O)Nc3ccc(Br)cc3)nc(C)c2C(=O)Nc2ccccc2)cc1
 : 16%	14%
CCOC(=O)c1ccc(NC(=O)c2cn(-c3ccccc3)nc2-c2ccc(OC)c(OC)c2)cc1
 : 26%	17%
CCNC(=O)C1CCN(S(=O)(=O)c2ccc3c(c2)CCCN3C(C)=O)CC1
 : -7%	41%[activator]
CC(NC(=O)COc1ccc(Br)cc1)c1nc2ccccc2[nH]1 (stereo unspecified)
 : 10%	-5%
CC1Nc2ccccc2NC2=C1C(=O)CC(C)(C)C2 (stereo unspecified)
 : -11%	0%
COc1cc(NC(=O)NCc2ccc(F)c(C)c2)cc(OC)c1OC
 : ?	?
CCOC(=O)C1CCN(c2cc3c(cc2NC(=O)c2ccc(Cl)cc2)n(C)c(=O)n3C)CC1
 : 22%	22%
CCCN1CCN(C2=NC(Cc3ccccc3)C(=O)N2c2ccccc2OC)CC1 (stereo unspecified)
 : -3%	-3%
Cc1cccc(NC(=O)c2cc(S(=O)(=O)NCCc3ccccc3)ccc2F)c1C
 : -11%	23%
O=C(NCc1coc(-c2cccs2)n1)c1ccc(C(F)(F)F)cc1
 : 40%	42%[activator]
CN(C)[C@@H]1C(=O)C(C(N)=O)=C(O)[C@@]2(O)C(=O)C3=C(O)c4c(O)ccc(Cl)c4[C@@H](O)[C@H]3C[C@@H]12
 : -16%	-11%
COc1ccc(CCNC(=O)CN2C(=O)COc3ccc(S(=O)(=O)N4CCCC4)cc32)c(OC)c1
 : -11%	35%[activator]
COc1ccc(-c2nc(SCC(=O)c3ccc(OC)c(Br)c3)n[nH]2)cc1
 : 40%[activator]	40%[activator]
CCOC(=O)c1c(C)n(C2CCCC2)c2ccc(O)cc12
 : -1%	8%
O=C(Cc1ccc2ccccc2c1)Nc1cccc2ncccc12
 : 15%	18%
COc1ccc(OC)c(CNC(=O)c2ccc3c(c2)c(C)c(C)n3C)c1
 : -15%	13%
O=C(CSc1cn(CC(=O)N2CCCCC2)c2ccccc12)Nc1ccc(C(F)(F)F)cc1
 : -6%	-4%
O=C(NC1CC1)c1cc(-c2ccccn2)nc2cc(F)ccc12
 : 34%[activator]	11%
